Vaccinia pol inh – vaccinia E9 polymerase processive synthesis inhibitors, primary screen, biochemical, absorbance; Vaccinia virus DNA polymerase (E9) processive complex; in vitro processive DNA synthesis, absorbance read-out; stronger effect = lower value; some inactives read as strong as hits; 46,000 compounds, 0.94% hits; AID 493162, 2011; normalized absorbance, % (test concentration not listed);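 active = replicate mean up to 90% and picked by the depositor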;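 also: 100% = median of the test wells of a plate; 100 nL library stock went into each well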
* marks the source's active call; other numbers are inactive results.

SMILES | Vaccinia pol inh
CCC(C(=O)NCc1ccco1)n1c(SCc2ccc(F)cc2)nc2cccnc21 (stereo not drawn) | 100.4
O=C1CC(c2ccc(Cl)cc2)n2ncnc2N1 (stereo not drawn) | 99.7
O=C(COC(=O)c1cc2ccccc2cc1O)c1ccc(OCc2ccccc2)cc1 | 100.1
Cc1ccc(NC(=O)C2Cc3ccccc3C(=O)O2)cc1C (stereo not drawn) | 109.5
CC1CCCC(C)N1C(=S)NCCCN1CCOCC1 (stereo not drawn) | 104.1
CCc1cc2c(=O)c(-c3ccc4ccccc4n3)coc2cc1OC | 101.7
O=C(Nc1cccc(C(F)(F)F)c1)c1ccccn1 | 98.2
Cc1cc(C(=O)N2CCN(C(c3ccccc3)c3ccccc3)CC2)nn1C | 83.6
Cc1ccccc1CS(=O)(=O)c1cnc2ccccc2n1 | 93.5
Cc1ccc(NC(=O)CC2Oc3ccccc3NC2=O)cc1 (stereo not drawn) | 99.5
Cc1cc(CN2CCS(=O)(=O)CC2)no1 | 113.6
CN(C)CCC(=O)c1ccc(Br)cc1 | 99.6
FC(F)(F)Oc1ccccc1-c1nnc(-c2ccccc2Cl)o1 | 100.3
Cc1ccc(CNC(=O)CC(C)C)cc1 | 97.6
c1ccc(-n2cnnc2)cc1 | 100.8
CC(C)(C)OC(=O)N1CCC(CNS(=O)(=O)c2ccc3c(c2)OCCO3)CC1 | 100.1
Cc1ccc(N)c(C(O)c2ccccc2)c1 (stereo not drawn) | 94.6
CC1(C)C2CC[C@]3(C)C(C(=O)C=C4[C@H]5C[C@@](C)(C(=O)O)CC[C@]5(C)CC[C@]43C)[C@@]2(C)CC[C@@H]1O (stereo partly drawn) | 99.9
CC(=O)Nc1cc(Cl)c(C)cc1N | 115.2
Fc1c(F)c(F)c(Nc2ccccc2)c(F)c1F | 101.6
Cc1ccc(C2CCN(C(=S)NCc3ccccc3)C2)cc1 (stereo not drawn) | 105.8
O=S(=O)(NCCO)c1cccc2cccnc12 | 98.3
COc1ccccc1/C(O)=C/C(=O)C(=O)Nc1sc2c(c1C#N)CCC2 | 89.7
Cn1c(Cc2ccccc2)nc2ccccc21 | 100.1

Structures above that contain fluorine (4):
SMILES | Vaccinia pol inh
CCC(C(=O)NCc1ccco1)n1c(SCc2ccc(F)cc2)nc2cccnc21 (stereo not drawn) | 100.4
O=C(Nc1cccc(C(F)(F)F)c1)c1ccccn1 | 98.2
FC(F)(F)Oc1ccccc1-c1nnc(-c2ccccc2Cl)o1 | 100.3
Fc1c(F)c(F)c(Nc2ccccc2)c(F)c1F | 101.6

The list continues:
SMILES | Vaccinia pol inh
COc1ccc(C(c2c(C)[nH]c3ccccc23)N2CCOCC2)cc1 (stereo not drawn) | 106.4
COc1ccc(Cl)cc1S(=O)(=O)N1CCC(c2nnc(-c3ccc(C)cc3)o2)CC1 | 106.6
CCc1ccc(C2Nc3ccccc3NC3=C2C(=O)CC(C)(C)C3)cc1 (stereo not drawn) | 97.2
CCCCc1nc2sc3c(Cl)ncnc3c2c2c1COC(C)(C)C2 | 99.9
COc1ccc(N(C)C(=O)Cc2c(C(=O)O)[nH]c3ccccc23)cc1 | 94.4
Cc1ccc(C(=O)NCS(=O)(=O)c2ccccc2)cc1 | 101.2
O=S1(=O)CCC(N2COc3c(cc(Cl)c4cccnc34)C2)C1 (stereo not drawn) | 99.3
Cc1cccc2c1-c1sc(C(=O)N3CCN(c4ccc(Cl)cc4)CC3)cc1CO2 | 100.4
Clc1ccc2ncnc(NCc3ccc4c(c3)OCO4)c2c1 | 100.5
CCOc1ccc(Oc2ccc(N)cc2)cc1 | 99.0
Cc1ccc(NC(=S)NCCN(C2CCCCC2)C2CCCC2)cc1 | 110.4
CC(=O)n1cc(-c2ccncc2)c2ccccc21 | 91.5
CCn1c(N)nc2ccccc21 | 99.6
Cc1ccc2cccc(SCc3ccc(Br)cc3)c2n1 | 99.8
NC(=O)C12CCC(CC1)C2 | 102.0
CCn1cc(C(=O)NC2CCCC(C)C2C)c2cc(OC)c(OC)cc2c1=O (stereo not drawn) | 89.0
Cc1sc(NC(=O)c2ccco2)c(C(c2cccnc2)N2CCCC2)c1C (stereo not drawn) | 100.1
O=C(Nc1cccc(Cl)c1)OC1CN2CCC1CC2 (stereo not drawn) | 125.3
CC[n+]1c(C)sc2ccccc21 | 95.5
CC(=O)n1c2ccccc2c2nc(C)sc21 | 45.9*
CCOc1ccccc1NC1=NC(C)(C)CS1 | 101.9
CCC1SC(CC)C(=O)N(CC(=O)NCc2ccccc2)C1=O (stereo not drawn) | 98.6
O=C(c1ccc(Cl)c(Cl)c1)n1ccc(C2CC2)n1 | 74.9
CC(C)(C)NC(=O)c1ccc(-n2nc(C(F)(F)F)c3c2-c2ccoc2CC3)cc1 | 103.3
CCOC(=O)CCc1c(C)nn2cnnc2c1C | 95.8
O=c1[nH][nH]c2nc(C(F)(F)F)cc(C(F)(F)F)c12 | 100.2
O=C(O)c1ccc(CSc2ccc(Cl)cc2)cc1 | 95.0
CCOc1ccc(S(=O)(=O)NCc2cccnc2)c2ccccc12 | 99.3
CCC(C(=O)NCc1cccc(OC)c1OC)n1sc2ccccc2c1=O (stereo not drawn) | 92.9
Cc1cc(C)nc(NC(N)=NCc2ccccc2Cl)n1 | 98.9
CC(C)(C)NC(=O)CSc1nc(N)c(C#N)cc1C#N | 100.0
Cc1ccc2oc(=O)c3cc(C(=O)N(CC(C)C)CC(C)C)sc3c2c1 | 105.2
CCC(=O)Nc1nonc1-c1nc2ccccc2n1C | 99.8
O=C(NC1CC1)c1sc2cc(F)ccc2c1Cl | 83.5
Oc1cccc2ccc[n+](CC(O)Cn3c4ccccc4c4ccccc43)c12 (stereo not drawn) | 100.4
O=C(NC1=NC2CCCCC2N1)c1ccccc1 (stereo not drawn) | 97.8

Reprinted from the part before: 6 compounds; new compounds follow.
SMILES | Vaccinia pol inh
CC(C)(C)NC(=O)CSc1nc(N)c(C#N)cc1C#N | 100.0
Cc1ccc2oc(=O)c3cc(C(=O)N(CC(C)C)CC(C)C)sc3c2c1 | 105.2
CCC(=O)Nc1nonc1-c1nc2ccccc2n1C | 99.8
O=C(NC1CC1)c1sc2cc(F)ccc2c1Cl | 83.5
Oc1cccc2ccc[n+](CC(O)Cn3c4ccccc4c4ccccc43)c12 (stereo not drawn) | 100.4
O=C(NC1=NC2CCCCC2N1)c1ccccc1 (stereo not drawn) | 97.8
Clc1ccc(CN2CCCCC2)cn1 | 103.6
O=C(c1cccc(Oc2ccccc2)c1)N1CCN(c2ccccn2)CC1 | 102.8
c1nc(N2CCCCC2)c2c3c(sc2n1)CCC3 | 91.8
Cc1cc(NC(=O)C(CC(C)C)NC(=O)C2CCC(C)CC2)ccc1Br (stereo not drawn) | 93.4
CCOc1ccc(C2c3c(oc4ccc(F)cc4c3=O)C(=O)N2CC2CCCO2)cc1 (stereo not drawn) | 99.5
O=C(COc1ccccc1)Nc1nc(-c2ccc(Cl)cc2)cs1 | 98.1
Cc1ccc(NC(=O)CCCN2C(=O)/C(=C\c3ccc4c(c3)OCO4)SC2=S)cc1C | 101.1
Cc1ccc(C(C2C(=O)CC(C)(C)CC2=O)C2C(=O)CC(C)(C)CC2=O)s1 | 99.4
CC12CCC(C1)C(C)(C)C2OCC(O)CN1CCN(c2ccccc2F)CC1 (stereo not drawn) | 98.3
NC(=O)N/C(CSCc1ccc(Cl)cc1)=N/O | 95.6
Cc1[nH]n(-c2ccccc2)c(=S)c1C=Nc1cccc(Br)c1 | 99.6
N#CC(c1ccccc1)c1ccc(C(=O)c2ccccc2)cc1 (stereo not drawn) | 105.7
CCc1ccc(NC(=O)CCNS(=O)(=O)c2cccc3nsnc23)cc1 | 101.0
CCN(CC)c1ncn(Cc2c(Cl)cccc2Cl)c2ncnc1-2 | 100.5
Cc1ccc2c(c1)c1c3n2CCN(C=O)C3CCC1 (stereo not drawn) | 100.3
O=S(=O)(NCc1ccco1)c1ccc(F)c(F)c1 | 96.4
Cc1ccc(/C=C2/SC(=S)N(C(C)C(=O)O)C2=O)o1 (stereo not drawn) | 99.1
O=C(CO)c1c[nH]c2ccccc12 | 100.4
COc1cc2nc(-n3nc(C)cc3C)n3nc(-c4ccccc4)nc3c2cc1OC | 93.2
CCn1c2ccccc2c2nnc(N3CCC(C)CC3)nc21 | 106.3
CCN(C(=O)c1cnc2sccn2c1=O)c1ccccc1 | 96.7
O=C(C1CCCN(Cc2ccco2)C1)N1CCCCCC1 (stereo not drawn) | 101.1
Clc1ccccc1OCc1nnc(-c2ccccc2)o1 | 97.1
C=CCn1c2ccccc2c2nnc(SCC(=O)NC3=NN=C(c4ccccc4)CS3)nc21 | 99.4
O=C(COC(=O)c1cccnc1Cl)NC12CC3CC(CC(C3)C1)C2 | 85.2
N#Cc1ccc(OCC(=O)Nc2ccncc2)cc1 | 100.4
CCCn1c(SCc2nc(-c3ccc(OC)cc3)no2)nnc1-c1ccncc1 | 98.6
COc1ccc(C(O)c2nccn2C)cc1OC (stereo not drawn) | 100.9
O=C(COC(=O)C1(c2ccccc2F)CCCC1)N1CCCCC1 | 87.4
CCC(Sc1nc2c(c(=O)[nH]1)CCC2)C(=O)Nc1cccc(OC)c1 (stereo not drawn) | 100.7
O=c1oc(-c2ccc(Cl)cc2)nnc1-c1ccccc1 | 97.9
CCNC(=O)c1ccccc1NC(=O)c1cccc(S(=O)(=O)N2CCCC2)c1 | 106.6
Cc1ccc(S(=O)(=O)N(O)c2ccc(Cl)cc2)cc1 | 97.6
O=C(CCn1c(=O)sc2ccccc21)NCCCc1ccccc1 | 104.0
CCn1c(C(=O)N2CCCC(C(=O)O)C2)cc2sccc21 (stereo not drawn) | 103.0
Cc1cccc(NC(=O)CS(=O)(=O)c2c[nH]c3ccccc23)c1C | 101.0
CCC(=O)NC(c1ccco1)c1cc(Cl)c2cccnc2c1O (stereo not drawn) | 99.8
CC(C)(C)c1cc(C(=O)CSc2nnnn2-c2ccccc2)cc(C(C)(C)C)c1O | 100.7
Cc1c(C(=O)NCCc2ccc(Cl)cc2)oc2ccc(S(=O)(=O)N3CCC(C)CC3)cc12 | 104.5
COC(=O)/C=C1/Nc2ccccc2SC1=O | 96.5
O=C(Nc1ccccc1)OCc1ccc(-c2cc(C(F)(F)F)cc(C(F)(F)F)c2)o1 | 91.5
CC1=C(Cc2cc3ccc(=O)oc3cc2O)CC(C)(C)CC1 | 102.0
CN(C)CCNC(=O)c1ccccn1 | 99.1
Cc1ccc(C)n1-c1ccc2c(c1)OCCO2 | 78.9
CC(C)N1CN=C(Nc2nc3ccccc3o2)NC1 | 89.5
COc1ccc(N=Cc2ccc3ncccc3c2)cc1N | 99.0
NC(=O)COc1ccc(C23CC4CC(CC(C4)C2)C3)cc1 | 102.7
O=C(/C=C/c1cn(-c2ccccc2)nc1-c1ccc(F)cc1)N1CCOCC1 | 97.3
O=C(Nc1csc2ccccc12)NC1CCN(Cc2ccccc2)CC1 | 78.5
COC(=O)c1ccc(NCC(=O)N2CC(C)CC(C)C2)cc1 (stereo not drawn) | 101.0
Cc1cccc(NC(=O)Nc2nnc(N3CCCCC3C)s2)c1C (stereo not drawn) | 98.2
c1ccc(Cn2nnnc2-c2ccco2)cc1 | 106.9
CCOC(=O)c1ccc(OCc2nc(-c3ccc(OC)c(OC)c3)no2)cc1 | 116.6
Cc1cc(C)c2c(CC(=O)Nc3sc4c(c3C(=O)NCC3CCCO3)CCC4)coc2c1 (stereo not drawn) | 101.3
CC(C)(C)C(=O)Cc1nc(O)cs1 | 114.5
O=C(OCc1csc(-c2ccccc2)n1)c1ccccc1 | 97.5
O=C(c1c(Cl)nc2sccn12)N1CCOCC1 | 100.9
CCN(C(C)=O)c1nc2c3ccccc3n(C(C)=O)c2s1 | 104.0
CN(C(Cc1ccc(OS(=O)(=O)c2cccc3cnccc23)cc1)C(=O)N1CCN(c2ccccc2)CC1)S(=O)(=O)c1cccc2cnccc12 (stereo not drawn) | 99.9
O=C(COc1ccccc1)NCC(=O)Nc1nc(CC23CC4CC(CC(C4)C2)C3)cs1 | 100.1

Carrying on:
SMILES | Vaccinia pol inh
Cc1cc(C)nc(SCC(=O)c2ccccc2)n1 | 99.0
Cc1cc(NC(=S)NC(C)(C)C)ccc1Br | 90.7
COC(=O)c1ccc2c(c1)CN(c1ccc(Br)cc1)C2 | 100.7
O=C(Nc1ccc(Oc2ccccc2)cc1)C1c2ccccc2Oc2ccccc21 | 99.7
COc1cc(CCC(=O)NCc2ccccc2)cc(OC)c1OC | 114.3
CCOC(=O)c1c(C)nc2ccccc2c1C(=O)O | 99.0
C/C(CC12CC3CC(CC(C3)C1)C2)=N/O | 95.9
CCOC(=O)C1CCN(c2ncnc3cc(OC)c(OC)cc23)CC1 | 88.7
CNc1[nH]c(=S)nc2sc3c(c12)CCCC3 | 95.4
O=C(NC1=NCCS1)c1sc2cc(F)ccc2c1Cl | 101.0
O=C(NCCN1CCOCC1)c1cccc2ccccc12 | 98.6
Cc1c(Sc2ccc(Cl)cc2)cnn1C(=O)Nc1cccc(C(F)(F)F)c1 | 71.4*
O=C(Cc1csc(Nc2ccc(Cl)cc2)n1)NCc1ccccc1 | 100.2
O=C(OCCSc1cnc2ccccc2n1)c1cc(Cl)cc(Cl)c1 | 100.9
O=C1N=c2ccccc2=C/C1=C/c1sc(=S)n(Cc2ccccc2)c1O | 102.2
COc1ccc(CNC(=O)c2c(C)oc3c2cc(OC(C)=O)c2ccccc23)cc1 | 108.4
Cc1ccccc1NC(=O)Cn1c(NCC(C)O)nc2ccccc21 (stereo not drawn) | 100.0
Brc1ccc(-c2csnn2)cc1 | 109.0

Given field by field: entries from further up.
O=C(OCCSc1cnc2ccccc2n1)c1cc(Cl)cc(Cl)c1
  Vaccinia pol inh: 100.9

O=C1N=c2ccccc2=C/C1=C/c1sc(=S)n(Cc2ccccc2)c1O
  Vaccinia pol inh: 102.2

COc1ccc(CNC(=O)c2c(C)oc3c2cc(OC(C)=O)c2ccccc23)cc1
  Vaccinia pol inh: 108.4

Screens (PubChem)

This is a subset; count on the stated rates, not on these rows.
